Screens from PubChem.
Vaccinia Venus: qHTS for Stage-Specific Inhibitors of Vaccinia Orthopoxvirus: Venus Reporter Primary qHTS | Potency, µM (highest dose often 36.5 µM), for the others: at the top dose activity change, negative = inhibition, hits mostly inhibitors | 330,000 compounds, 0.46% hits | Vaccinia virus Venus reporter expression, fluorescence; active means well fitted inhibition curve with a large enough effect; inconclusive means small, poorly fitted or top-dose-only effect; inactive means no such curve, though single readings can be large or run the other way; tested in A549 cells; also: nearly all actives have a fitted effect of over 30% in size; inactives centre near -10
Vaccinia mCherry: qHTS for Stage-Specific Inhibitors of Vaccinia Orthopoxvirus: mCherry Reporter Primary qHTS; Vaccinia virus mCherry reporter infection, fluorescence; about a quarter of the inactives have no number; Potency, µM (highest dose often 36.5 µM), for inactives: at the top dose activity change, negative = inhibition, most hits filed as inhibitors; 310,000 compounds, 0.63% hits; AID 720579, 2013; active = well fitted inhibition curve with a large enough effect; inconclusive = small, poorly fitted or top-dose-only effect; inactive = no such curve, though single readings can be large or run the other way; tested in A549 cells; also: nearly all actives have a fitted effect of over 35% in size; inactives centre near -10
Numbers without * were called inactive; i = inactive; ? = inconclusive; nt = not tested or not shown; & = joins results of further samples; [ ] = dose if it differs, or a comment. % is scaled to controls: 0 for no effect and ±100 for the full control effect; potency is read from the fitted curve at half-maximal effect.

Second line of a record: Vaccinia mCherry | Vaccinia Venus
- O=C(COc1ccc(F)cc1)Nc1cc(S(=O)(=O)N2CCCCC2)ccc1N1CCCCC1
  -19% | -20%
- CCc1nn2cc(C(=O)c3cc(Cl)ccc3O)cnc2c1-c1ccc(F)cc1
  -14% | -6%
- C[C@@H]1CN([C@@H](C)CO)C(=O)CCCn2nncc2CO[C@@H]1CN(C)C(=O)c1ccc2ccn(C)c2c1
  -7% | -16%
- O=[N+]([O-])c1ccc(-c2csc(N3CCCCCC3)n2)cc1
  i | -9%
- COc1ccc(Nc2c(-c3cccc(OC)c3)nc3nc(C)cc(C)n23)cc1
  -16% | -2%
- O=C(NCCCN1CCCC1=O)C(=O)Nc1cccc(F)c1
  -17% | -12%
- COc1ccccc1N(CC(=O)N/N=C/c1c(O)ccc2ccccc12)S(C)(=O)=O
  11µM* | ?
- Cc1cccc(NC(=O)C2CC(=O)n3ncnc3N2)c1 (stereo not given)
  -5%[7.34 µM] | -5%[7.34 µM]
- CCCNS(=O)(=O)c1ccc(OCC(=O)NCc2ccc3c(c2)OCO3)cc1
  -16% | -14%
- C=CCn1c(C)cc(C(=O)Cn2c(C(C)O)nc3ccccc32)c1C (stereo not given)
  -25% | -29%
- NC(N)=N/N=C/c1ccc2cccc(OCc3ccccc3)c2n1
  -14% | -26%
- CCN(C(=O)CCS(=O)(=O)c1cccc2nsnc12)c1cccc(C)c1
  -7%&-13% | -20%&-9%
- CCc1ccc(NC(=O)CN(C)S(=O)(=O)c2ccc3[nH]c(=O)oc3c2)cc1
  -12% | -2%
- O=C(Nc1ccc(S(=O)(=O)N2CCCCC2)cc1)C1CCCN(C(=O)c2ccc(Cl)cc2)C1 (stereo not given)
  ? | ?
- COc1cccc(NC(=O)C2CCCN(S(=O)(=O)c3c(C)[nH]c(=O)[nH]c3=O)C2)c1 (stereo not given)
  -7% | -7%
- O=C(CN1CCCCCCC1)N/N=C/c1ccc(F)cc1F
  -11% | -9%
- CCC(CC)C(=O)Nc1ccccc1SCc1cc(=O)c2cccc(C)c2[nH]1
  1% | 2%
- CCCN(C(=O)c1cc2c(s1)-c1c(C)cccc1OC2)c1ccc(OCC)cc1
  -10% | -12%
- CCCCNc1nc2ccccc2[nH]1
  nt | 0%
- c1ccc(-n2c3ccccc3c3ccccc32)cc1
  i | 10%
- Cc1nc2c(c(C)c1CCC(=O)Nc1cccc(C(F)(F)F)c1)c(=O)n(C)c(=O)n2C
  6% | 0%
- Cc1cccc2cc(COC(=O)C3CCCO3)c(=O)[nH]c12 (stereo not given)
  nt | -4%
- COC(=O)c1c(NC(=O)c2ccc(C)cc2)sc(Cc2ccccc2)c1C
  -11% | -10%
- COc1ccc(CNc2ncnc3c2nnn3C)cc1
  -24% | -13%
- CCOC(=O)C1=C(C)NC(=O)NC1c1ccc(OCC(=O)N2CCCCC2)cc1 (stereo not given)
  nt | -9%
- O=C(C1CCC(N2C(=O)C3CC=CCC3C2=O)CC1)N1CCCCC1 (stereo not given)
  -18% | -7%
- CC(C)Nc1ncnc2c1ncn2[C@H]1CN(Cc2ccncc2)C[C@@H](CO)O1
  37%[activator] | -1%
- CC(C)[C@H]1COCCS(=O)(=O)N1Cc1ccc(Cl)cc1
  25µM* | ?
- COc1ccc(C(=O)Nc2cc(-c3cccc(C)c3)nn2-c2ccccc2)cc1
  -3% | -24%
- COc1ccc(CC(N)c2csc(NC(=O)Cc3ccccc3)n2)cc1 (stereo not given)
  i | -14%
- CC(=O)N1CCN(c2ccc(NC(=O)/C=C/c3ccccc3)cc2)CC1
  -11% | -7%
- COC(=O)c1cc2c(ccn2-c2ccc(F)cc2)n1CC(=O)N1CCN(C(=O)c2ccco2)CC1
  -8% | -11%
- O=C(Cc1csc(NC(=O)c2ccc(F)cc2)n1)NO
  -15% | -3%
- O=C(CC(c1ccccc1)c1ccco1)Nc1nccs1 (stereo not given)
  i | -4%
- COc1ccc(C2N(C(=O)N3CCOCC3)CCN2S(=O)(=O)c2ccc(C)cc2)cc1 (stereo not given)
  -14% | -7%
- COC(=O)CNC(=O)C(C)(C)Oc1ccc(Cl)cc1
  -22% | -13%
- O=C(NCc1ccc2c(c1)OCO2)C1CC(=O)N(CCc2ccc(Cl)cc2)C1 (stereo not given)
  -3% | -22%
- OC(CNCCc1ccc(Cl)cc1)COc1ccc2ccccc2c1 (stereo not given)
  -18% | -19%
- O=c1[nH]nc(Cc2ccc3ccccc3n2)c2ccccc12
  -10%[1.46 µM] | -23%
- COc1cccc(CNc2nc(NC(C)C)nc3ccsc23)c1OC
  ? | ?
- COc1ccc(Br)c(/C=N/NC(=O)COc2ccc(-c3ccccc3)cc2)c1
  -13% | -1%
- COCCn1c(N)c(NCc2ccccc2)c(=O)[nH]c1=O
  i | -10%
- O=C(NC1CCCc2ccccc21)C1CCN(S(=O)(=O)c2ccccc2F)CC1 (stereo not given)
  i | -8%
- COc1ccc(-c2ccc(CN3C(C)C(=O)N(Cc4cn(CC5CCCCC5)nn4)CCS3(=O)=O)cc2)cc1 (stereo not given)
  -23% | ?
- CCCCc1ccc(N=N/C(C(=O)Nc2ccccc2OC)=C(/C)O)cc1
  -21% | -12%
- COc1cc2ccnc(C=NO)c2cc1OC
  -25% | -21%
- O=C(CC1OC(=O)c2ccccc21)Nc1cc(Cl)ccc1N1CCCC1 (stereo not given)
  ? | -4%
- CCCc1ccc2oc(C(=O)N3CCNC(=O)C3CC(=O)OC)c(C)c2c1 (stereo not given)
  -30% | -24%
- CCNC(=O)C(=O)Nc1ccc2c(c1)N(S(=O)(=O)c1cccs1)CCC2
  -11% | ?
- COc1cccc(NC(=O)c2cnn(-c3ccccc3)c2-n2cccc2)c1
  -7% | -11%
- CC(OC(=O)C1CCCO1)C(=O)NC1CCCC1 (stereo not given)
  -12% | -11%
- CNCCCC12CCC(c3ccccc31)c1ccccc12
  ? | -25%&-27%&-26%
- COC(=O)c1ccccc1NC(=O)CCCn1c(=O)c2cccn2c2cccnc21
  -13% | -3%
- O=C(O)c1ccccc1Sc1c([N+](=O)[O-])cc(C(F)(F)F)cc1[N+](=O)[O-]
  0% | -9%
- FC(c1nc2ccccc2[nH]1)C(F)(F)F (stereo not given)
  -4% | -5%
- Cc1ccc(-n2nc(CO)c(C(=O)NCCc3ccccc3)n2)cc1C
  -7% | -6%
- O=S(=O)(c1ccc(Br)cc1)N1CCN(Cc2ccco2)CC1
  -9% | -3%
- COc1cc2c(cc1OC)n(Cc1cccc(C(F)(F)F)c1)c(=O)n1nc(-c3ccccc3)nc21
  -14% | -23%
- Cc1cccc(CN2CCN(Cc3nc4c(s3)CCCC4)CC2CCO)n1 (stereo not given)
  -26% | 0%
- Cc1ccc(N2CC(NC(=O)c3cccs3)CC2=O)cc1C (stereo not given)
  -15%[7.34 µM] | -14%[7.34 µM]

Additional compounds follow.
Second line of a record: Vaccinia mCherry | Vaccinia Venus
- CCO/N=C/C1=C(O)C(C(=O)OC)C(C)(C)CC1=O (stereo not given)
  i | -4%
- Cc1ccc(CN2CCS(=O)(=O)CC2)o1
  i | -10%
- Cc1cc(F)ccc1C(O)c1ncc(-c2cccc(OCc3ccccc3)c2)[nH]1 (stereo not given)
  -4% | -9%
- NN1C(=O)c2cccc3c(C(=O)O)ccc(c23)C1=O
  -12% | -13%
- Cc1ccc2c(C)c(C(=O)Nc3c(C)n(C)n(-c4ccccc4)c3=O)oc2c1
  nt | ?
- CCn1cc(C(=O)O)c(=O)c2cc(F)c(N3CCN(C(=S)NC(=O)c4ccc(Br)cc4)CC3)cc21
  0% | -4%
- CC(OC(=O)CCN=C1NS(=O)(=O)c2ccccc21)C(=O)Nc1ccc(S(N)(=O)=O)cc1 (stereo not given)
  -22% | -2%
- CC(=O)N1CCc2cc(S(=O)(=O)NC(Cc3ccccc3)C(=O)Nc3cc(C)ccn3)ccc21 (stereo not given)
  -2% | -1%
- NC(=O)CC(NC(=O)c1ccc(Br)cc1)c1ccc(N2CCC(Cc3ccccc3)CC2)c([N+](=O)[O-])c1 (stereo not given)
  -8% | ?
- COc1cccc(CNC(=O)COc2ccc(C(=O)c3ccccc3)cc2)c1
  ? | -23%
- O=C(O)C1CCN(c2ccccc2[N+](=O)[O-])CC1
  i | -11%
- C#CCOCCOCCOCCNc1nc(N2CCN(C(=O)Cn3cc(CCO)nn3)CC2)nc(N2CCN(C(=O)Cn3cc(CCO)nn3)CC2)n1
  i | 6%
- Cc1cccc(CSCc2nnc(N)s2)c1
  nt | -11%
- CCN(CC)S(=O)(=O)c1cc(C)c(C)cc1Br
  i | ?
- COC(=O)c1nnn(-c2ccc(Br)cc2)c1C(=O)OC
  -5% | -7%
- COc1ccc(C(C)(C)NC(=O)C2CCC(=O)N(C3CCCC3)C2)cc1OC (stereo not given)
  -22% | -11%
- C/C(=N\O)c1sc(-c2ccccc2)nc1C
  0% | -11%
- O=S(=O)(c1cccs1)N1CCN(CCc2ccccc2)CC1
  -9% | -23%
- COc1ccc(N2C(=O)CC(Sc3nc4ccccc4s3)C2=O)cc1 (stereo not given)
  -3% | 0%
- Cc1cc(C(=O)CCl)c(C)n1CC1COc2ccccc2O1 (stereo not given)
  -13% | -7%

Single records, from the list above. Values in the order: Vaccinia mCherry, Vaccinia Venus
Cc1cc(C(=O)CCl)c(C)n1CC1COc2ccccc2O1 (stereo not given) is listed with -13%, -7%
C#CCOCCOCCOCCNc1nc(N2CCN(C(=O)Cn3cc(CCO)nn3)CC2)nc(N2CCN(C(=O)Cn3cc(CCO)nn3)CC2)n1 is listed with i, 6%
CC(OC(=O)CCN=C1NS(=O)(=O)c2ccccc21)C(=O)Nc1ccc(S(N)(=O)=O)cc1 (stereo not given) is listed with -22%, -2%
Cc1ccc(CN2CCS(=O)(=O)CC2)o1 is listed with i, -10%
CCO/N=C/C1=C(O)C(C(=O)OC)C(C)(C)CC1=O (stereo not given) is listed with i, -4%

Following part.
Second line of a record: Vaccinia mCherry | Vaccinia Venus
- O=C(Nc1nc2n(n1)C(c1ccccc1)C=C(c1ccccc1)N2)c1ccc(Cl)c([N+](=O)[O-])c1 (stereo not given)
  -4% | -2%
- COCCNC(=O)c1ccc2c(Cl)c3c(nc2c1)CCC3
  -25% | -28%
- CN(C1CCCCC1)S(=O)(=O)c1ccc2c(c1)c(=O)c(C(=O)N1CCN(c3ccccc3F)CC1)cn2C
  -2% | 11%
- CN(C)c1ccc(/C=C/c2ccncc2)cc1
  2%&7% | 29%&17%
- COc1ccc(-n2ncc3c2CC(C)(C)CC3NC(=O)CN2CCOC2=O)cc1 (stereo not given)
  -6% | -13%
- O=C(CSc1ncn(-c2ccccc2)n1)Nc1nc2c(s1)CCCC2
  -1% | -12%
- CN(C)Cc1cc(C(C)(C)C)cc(N2CCOCC2)c1O
  ? | -5%
- Cc1ccc(C(=O)CCC(=O)OCC(=O)Nc2c(C)nn(-c3ccccc3)c2C)cc1
  -15% | -10%
- COc1ccc(Cl)cc1N(CC(=O)N1CCN(Cc2ccccc2)CC1)S(C)(=O)=O
  -14% | -11%
- Cc1cc([N+](=O)[O-])nn1CC(=O)Nc1cccc2nonc12
  -13% | 10%
- CCN1C(=O)N[C@@H](c2ccc(Br)cc2)C(C(C)=O)=C1C
  i | -8%
- Cc1cccc(N2CCN(S(=O)(=O)c3c(C(=O)N4CCC(C)CC4)c(C)n(C)c3C)CC2)c1C
  i | -16%
- O=C1NC[C@H](Cc2ccccc2)N(C[C@@H]2CCCN2C[C@H](Cc2ccccc2)N2C[C@H](Cc3ccc(O)cc3)N(CCc3ccccc3)C(=O)C2=O)C1=O
  -12% | 5%
- Nc1c(C(=O)CSc2nnc(N3CCOCC3)n2-c2cccc(F)c2)c(=O)[nH]c(=O)n1C1CC1
  -14% | -5%
- COc1ccc(S(=O)(=O)N2CCC[C@H]2C(=O)N2CCC[C@H]2C(=O)N(C)Cc2ccccc2)cc1C
  -14% | -6%
- Cn1ccc(C(=O)Nc2ccc(Br)cc2Br)n1
  -18% | -17%
- COC(=O)CCCC1=CC2=C(c3ccccc3)C(=O)C(C)(OC(=O)C3CCCC3)C(=O)C2=CN1CCc1ccccn1 (stereo not given)
  i | -4%
- CCOC(=O)c1c(NC(=O)C2=C(C)NC(=S)NC2c2ccccc2C(F)(F)F)sc(C)c1C (stereo not given)
  -14% | -8%
- Cc1ccc(CN2CCC(CNS(=O)(=O)c3ccc(-c4ccc(=O)[nH]n4)s3)CC2)cc1
  i[7.34 µM] | -8%[7.34 µM]
- Cc1onc(-c2ccccc2)c1C(=O)N1CCN(C(=O)c2ccco2)CC1
  i | -1%
- COc1ccc(S(=O)(=O)N2CCC(C(=O)NCc3cccc(OC)c3)CC2)cc1
  -3% | -12%
- CC(C)(C)NC(=O)/C(=C\C=C\c1ccccc1)NC(=O)c1ccc([N+](=O)[O-])cc1
  -1% | -7%
- CCOc1ccccc1OCCCNCc1ccccc1
  -20% | -8%
- COC(=O)/C(C(C)=O)=C(\C=C\N(C)C)N(C)C
  -8% | -5%
- Cc1ccc(OCCC(=O)OCC(=O)C(C)(C)C)cc1
  -9% | -4%
- Cc1csc(NC(=O)CSc2nnc(-c3ccoc3C)n2CCc2ccccc2)n1
  -26% | -11%
- C/C(O)=C/c1nc2ccccc2[nH]c1=O
  i | -4%
- COc1ccc(C(=O)NN/C(C)=C/C(=O)C(F)(F)C(F)(F)C(F)(F)F)cc1
  -12% | -5%
